High-throughput results: PubChem BioAssay, Johns Hopkins Ion Channel Center
KCNQ2 pot – potentiators of rat KCNQ2 potassium channel; B-score at 10 µM; 310,000 compounds, 0.54% hits; AID 2239, 2010; Potassium voltage-gated channel subfamily KQT member 2 (Rattus norvegicus), O88943; CHO-K1 KCNQ2, FluxOR thallium flux fluorescence; hits give high values;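 active means fluorescence ratio B-score at least 3 SD of library B-scores, with initial fluorescence B-score within 3 SD, cut at about 5.3 in these data; same plate scores as AID 2156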;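 further: B-score of peak minus minimum over baseline fluorescence ratio after K+ and Tl+ stimulus; positive B-score means potentiation of KCNQ2 with more thallium influx and brighter signal; only the inactives scoring about 0 or higher are listed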
Target sequence (O88943 whole entry, looked up): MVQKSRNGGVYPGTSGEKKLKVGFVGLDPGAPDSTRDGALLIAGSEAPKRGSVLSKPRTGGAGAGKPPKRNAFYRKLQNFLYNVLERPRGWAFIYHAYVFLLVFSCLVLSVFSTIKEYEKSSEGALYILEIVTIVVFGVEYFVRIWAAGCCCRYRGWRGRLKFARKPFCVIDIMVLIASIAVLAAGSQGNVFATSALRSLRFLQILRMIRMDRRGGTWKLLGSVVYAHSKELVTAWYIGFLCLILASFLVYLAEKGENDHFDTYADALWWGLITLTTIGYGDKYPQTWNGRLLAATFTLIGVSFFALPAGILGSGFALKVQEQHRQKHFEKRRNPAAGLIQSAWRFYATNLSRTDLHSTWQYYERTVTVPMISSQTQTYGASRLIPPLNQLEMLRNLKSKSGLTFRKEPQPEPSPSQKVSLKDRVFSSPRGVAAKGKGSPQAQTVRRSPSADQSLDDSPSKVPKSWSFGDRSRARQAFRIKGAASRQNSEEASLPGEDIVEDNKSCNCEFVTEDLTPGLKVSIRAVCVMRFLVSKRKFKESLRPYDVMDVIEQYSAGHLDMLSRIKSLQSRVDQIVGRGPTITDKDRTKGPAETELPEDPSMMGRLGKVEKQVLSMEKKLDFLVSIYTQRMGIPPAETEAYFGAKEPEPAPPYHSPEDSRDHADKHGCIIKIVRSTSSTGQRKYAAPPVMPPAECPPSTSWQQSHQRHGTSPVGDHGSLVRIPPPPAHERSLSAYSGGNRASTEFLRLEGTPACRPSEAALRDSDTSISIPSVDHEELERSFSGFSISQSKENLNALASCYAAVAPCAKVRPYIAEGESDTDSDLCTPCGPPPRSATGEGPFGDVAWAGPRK
KCNQ2 pot baseline – further read-out of KCNQ2 pot, marked with its call; B-score; compound at 10 µM; measured here: initial fluorescence intensity artifact check;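 brightness before thallium and not channel activity; 0 = typical well and far values either way flag optical interference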
Starred values were filed as active, the others as inactive; & = joins results of further samples. A portion of the library, so the mix of outcomes need not match the whole.

cpd	mol	KCNQ2 pot	KCNQ2 pot baseline
1	CCCCn1c(N)c(C(=S)NC(=O)CC(C)(C)C)c(=O)n(C)c1=O	6.9*	0.08*
2	Cc1ccc(-n2cccn2)cc1	1	1.9
3	COC(=O)[C@H](CC(C)C)NC(=O)Nc1ccccc1F	0.17	-0.49
4	C/C=C/C=C\C(=O)Nc1cccc(C2=NOC3(C2)C[C@H](C(N)=O)N(C(=O)CC#N)C3)c1 (stereo partly drawn)	0.81	-0.92
5	COc1ccc(/C=C(\NC(=O)c2ccc(C)cc2)C(=O)Nc2c(C)n(C)n(-c3ccccc3)c2=O)cc1	0.29	-0.34
6	O=C(CSc1ccccn1)N/N=C/c1c[nH]c2ccccc12	1.3	-0.19
7	CCOc1ccc(C(=O)NCC(=O)N2CCc3ccccc3C2)cc1OCC	0.08	-1.1
8	COc1ccc(C(=O)Nn2cc3c(c2-c2ccccc2)c(=O)n(C)c(=O)n3C)cc1	0.13	0.39
9	Cc1cccc(/C(N)=N/OC(=O)CCc2ccccc2)c1	2.3	-0.27
10	CCCC[C@@H]1CNC(=S)N1CCc1cccc(F)c1	0.13	-0.62
11	Cc1ccc(Cl)cc1N1CCN(C(=O)Cn2ncn3cccc3c2=O)CC1	1.8	3.1
12	Cc1ccc2nc(-c3ccc(NC(=O)C(C)Sc4nncs4)cc3)sc2c1 (stereo not drawn)	0.16	1.5
13	COC(=O)c1cccc(NC(=O)CC2C(=O)NCCN2C(=O)Nc2ccccc2)c1 (stereo not drawn)	2.1	0.93
14	Cc1ccc(Cn2nnc3c(=O)n(CC(=O)N4CCCCC4)cnc32)cc1	0.02	-0.02
15	COc1ccc(C(C)NC(=O)c2ccc(Br)cc2)cc1OC (stereo not drawn)	1.2	1.3
16	N/C(Cc1ccc(Cl)cc1Cl)=N\OC(=O)c1ccccc1	4.1	-3.7
17	CC[C@H](C)C1NC(=O)[C@H](CC(=O)O)NC(=O)c2cc([N+](=O)[O-])cc(I)c2NCCC(C(N)=O)NC1=O (stereo partly drawn)	0.57	0.9
18	O=S(=O)(NCCc1ccccc1F)c1cccc(S(=O)(=O)N2CCOCC2)c1	0.02	0.95
19	Cc1nc2scc(C)n2c(=O)c1S(=O)(=O)NCC1CCN(Cc2ccc(F)cc2)CC1	0.54	0.68
20	O=C(O)c1ccc(C(=O)c2ccc3c(c2)C(=O)N(Cc2ccco2)C3=O)cc1	0.31	0.21
21	O=C(NC(=S)Nc1ccc(N2CCOCC2)cc1)c1ccc(Cl)cc1	2.2	-1.7
22	O=c1oc(-c2cccc(S(=O)(=O)N3CCOCC3)c2)nc2ccccc12	1.2	-0.41
23	CC(=O)N1CCN(C(=O)c2ccc(S(=O)(=O)Nc3cccc(C(F)(F)F)c3)cc2)CC1	0.66	1.4
24	COc1cccc(C2C(C(=O)Nc3cccnc3)=C(C)Nc3nnnn32)c1OC (stereo not drawn)	0.07	-0.13
25	CC1=C(O)C(=O)OC1c1c(Cl)cccc1Cl (stereo not drawn)	0.01	0.48
26	COc1cccc(/C=C2\N=C(SC)SC2=O)c1OC	1.7	0.53
27	O=C1Nc2ccccc2C1Cc1ccccc1 (stereo not drawn)	0.06	-1.7
28	CC(C)N1CCC(N2CCN(CCCn3cccn3)CC2CCO)CC1 (stereo not drawn)	2	-0.73
29	Cc1ccccc1S(=O)Cc1ccc(C(=O)NCCN2CCOCC2)o1 (stereo not drawn)	1.8	-0.41
30	CCCN1C2CCCC1CC(NC(=S)Nc1ccc(OC)cc1)C2 (stereo not drawn)	1.7	-0.01
31	O=C(c1ccc2nc[nH]c2c1)N1CCN(c2ncc(C(F)(F)F)cc2Cl)CC1	2.3	-0.76
32	O=S(=O)(Nc1nc2ccccc2nc1Cl)c1ccc2c(c1)OCCO2	0.24	-0.68
33	COC(=O)C1CCN(C(=O)COC(=O)[C@@H]2CC(O)CN2S(=O)(=O)c2ccc3c(c2)OCCO3)CC1 (stereo partly drawn)	0.99	0.21
34	CC1=C(C)NC(=S)SC1	0.17	0.54
35	Clc1ccc(N=C2SCCS2)cc1	1	-1.6
36	O=C(Cc1ccc(F)cc1)Nc1nnc(SCC(=O)NC2CCCC2)s1	1.7	0.27
37	CCCc1ccccc1OCCNC(C)=O	0.76	-0.65
38	CCn1c(SCC(=O)N2CCN(c3ccccc3)CC2)nnc1-c1cc2cc(Cl)ccc2o1	0.1	1.7
39	COc1cc(C(=O)NC(C)c2ccc(S(N)(=O)=O)cc2)ccc1OCC(=O)N1CCOCC1 (stereo not drawn)	0.46	0.9
40	CN1CCN(C(=S)Nc2ccc(Cl)cc2Cl)CC1	0.19	-0.14
41	Cn1c(SCC(N)=O)nnc1-c1ccc(C(C)(C)C)cc1	0.3	1.3
42	Cc1noc(NS(=O)(=O)c2ccc(NC(=O)c3cc(=O)c4ccccc4o3)cc2)c1C	0.2	-0.98
43	O=C(NNC(=O)c1c(F)cccc1F)c1ccccc1OC(F)(F)F	0.65	-0.18
44	CCn1c(CC(=O)Nc2ccc(OC)cc2)nnc1SCC(=O)N1CCOCC1	0.27	1
45	O=C(Cc1cccs1)NNC(=O)c1ccc(F)cc1	0.05	0.09
46	CC1=C(C#N)C(=O)N(C)C(C)(C)C1	1.2	0.08
47	CCC1CCCCN1C(=O)CCC(=O)Nc1nnc(C(F)(F)F)s1 (stereo not drawn)	0.24	0.22
48	Cc1c(C)c(C)c(S(=O)(=O)n2[nH]c(=O)c(CCO)c2C)c(C)c1C	2	-1.1
49	COc1ccc(N(CC(O)Cn2c(C)nc3ccccc32)S(=O)(=O)c2ccccc2)cc1 (stereo not drawn)	0.14	0.14
50	COc1cccc(N2CC(C(=O)Nc3c(C(N)=O)oc4ccccc34)CC2=O)c1 (stereo not drawn)	0.13	-3.6
51	CCC(C)Oc1ccc(C(=O)Nc2ccc(CN3CCOCC3)cc2)cc1 (stereo not drawn)	0.49	0.31
52	COc1ccc(CNC(=O)c2nnn(CC(=O)Nc3cc(C)cc(C)c3)c2N)cc1	1.6	0.01
53	O=C(COc1ccc(Cl)cc1)OCC(=O)N1CCCCCC1	0.06	0.02
54	CCSc1nc2sc3c(c2c(=O)[nH]1)CCc1ccccc1-3	0.01	0.06
55	Cn1c(=O)c2c(O)c(Cc3ccccc3)c(=O)[nH]c2n(C)c1=O	2.2	-0.03
56	COc1ccc(NC(=O)c2cc3ccccc3[nH]2)cc1	0.33	-0.77
57	O=C(Nc1ccc(Cl)cc1)c1cncs1	0.61	-0.01
58	CC(=O)Nc1cccc(C(=O)OCC(=O)Nc2c(C)nn(-c3ccccc3)c2C)c1	1.3	-1.9
59	Cc1nn(-c2ccccc2)nc1CNC(=O)CC(C)(C)C	0.22	0.67
60	COc1ccc(OC)c(-c2[nH]nc3c2C(c2ccco2)C(C#N)=C(N)O3)c1 (stereo not drawn)	1.1	-0.88

Record cards, as listed above. Values in the order: KCNQ2 pot, KCNQ2 pot baseline
O=C(Cc1cccs1)NNC(=O)c1ccc(F)cc1 in the list: 0.05, 0.09
Cc1c(C)c(C)c(S(=O)(=O)n2[nH]c(=O)c(CCO)c2C)c(C)c1C in the list: 2, -1.1
Cc1noc(NS(=O)(=O)c2ccc(NC(=O)c3cc(=O)c4ccccc4o3)cc2)c1C in the list: 0.2, -0.98
O=C(Nc1ccc(Cl)cc1)c1cncs1 in the list: 0.61, -0.01

Other compounds
cpd	mol	KCNQ2 pot	KCNQ2 pot baseline
61	COc1ccc(S(=O)(=O)Cc2ccc(C(=O)NC(C)C)o2)cc1	0.98	0.01
62	CCOC(=O)c1oc2ccccc2c1CN1CCN(C)CC1	1.3	-1.3
63	COc1ccc([C@H]2[C@@H](C#N)[C@H](C#N)N3CCCN23)cc1	0.67	0.06
64	Cc1nc2cc(Cl)c([N+](=O)[O-])cc2s1	0.14	-0.67
65	COc1ccc(C2=NO[C@@H]3C(=O)N(c4c(C)cccc4C)C(=O)[C@H]23)cc1OC	1.2	0.37
66	CCC(C)Sc1nc2c(c(=O)[nH]c(=O)n2C)n1Cc1ccccc1Cl (stereo not drawn)	0.82	-0.06
67	Cn1c(=O)c2c(ncn2CCOc2ccc(Br)cc2)n(C)c1=O	0.03	2.9
68	COc1ccc(NC(=O)CNS(=O)(=O)c2cccc3nonc23)c(OC)c1	1.2	2.2
69	CCOC(=O)c1[nH]c2ccc(Br)cc2c1NC(=O)CCN1CCC(C)CC1	1.9	-0.49
70	Oc1cccc(C(Nc2nccs2)c2ccc3cccnc3c2O)c1 (stereo not drawn)	2.3	-1.9
71	O=C(NCCc1ccc(Cl)cc1)c1cnc2n(c1=O)CCS2	0.64	0.47
72	Cc1nn2c(-n3ccnc3)c3c(nc2c1-c1ccccc1)CCC3	0.49	1.7
73	c1csc(COc2ccccc2CNC2CCCCC2)c1	1.3	-0.05
74	Oc1cccc2c3c(oc12)CCCC3	1.4	-0.72
75	CC(C)CN(C(=O)COC(=O)CSc1ccccc1F)c1c(N)n(Cc2ccccc2)c(=O)[nH]c1=O	0.1	1.1
76	Cn1cnnc1SCC(=O)Nc1ccc(Cl)c(S(=O)(=O)N2CCOCC2)c1	1.1	0.98
77	Cc1[nH]c2ccccc2c1C(=O)C(=O)N1CC(C)OC(C)C1 (stereo not drawn)	0.07	0.32
78	CCOc1ccccc1N(CC(=O)NC1CCCC1)C(=O)CCC(=O)Nc1cc(C)on1	0.99	0.13
79	CCOC(=O)c1c(NC(=O)Nc2ccc(Cl)cc2)sc(C)c1C	0.42	1.7
80	O=[N+]([O-])c1ccn(-c2nc(-c3cccs3)cc(C(F)(F)F)n2)n1	0.14	0.04
81	CCCCC(=O)Nc1ccccc1N1CCN(c2ccc(F)cc2)CC1	0.31	-0.81
82	O=S(=O)(c1cccc(NC(=S)N2CCN(c3cccc(Cl)c3)CC2)c1)C(F)F	0.24	-0.65
83	CCCC1=C(C(=O)OCC)C(c2sccc2C)n2ncnc2N1 (stereo not drawn)	1.5	-0.7
84	CC1CC(=O)NN=C1c1ccc(NCCO)c([N+](=O)[O-])c1 (stereo not drawn)	0.22	1.2
85	COCCn1nnnc1C(c1ccc(C)cc1)N1CCN(Cc2ccc3c(c2)OCO3)CC1 (stereo not drawn)	1.8	1.7
86	O=C(Nc1nc(SCc2ccc(F)cc2)ns1)c1ccco1	0.14	0.13
87	CCOC(=O)C(=O)Nc1nccs1	0.06	-0.45
88	CC(=O)Nc1ccc(NC(=O)c2ccc(Cl)nc2)cc1	0.33	-0.4
89	Cc1cc(Cl)c2c(c1)[C@]1(C(=O)N2)[C@@H]2C(=O)N(Cc3ccccc3)C(=O)[C@@H]2[C@@H]2CCCN21	0.94	-0.04
90	C/C(=N\NC(=O)c1cccc(Br)c1)c1ccc(Br)cc1	2.2	0.71
91	CCOc1ccc(C(=O)NC(=S)Nc2ccc(N3CCCCC3)cc2)cc1[N+](=O)[O-]	1.7	-0.26
92	Cc1[nH]c(=O)[nH]c(=O)c1S(=O)(=O)N1CCOCC1	0.29	-0.4
93	CCCCC(=O)N(c1ccc(OC)cc1)C1C=CS(=O)(=O)C1 (stereo not drawn)	1.4	1.6
94	Cc1cc(Cl)cc(Br)c1OCCCCn1cncn1	2.3	1.2
95	CCc1c(C)nc2c(OC)cccc2c1Cl	0.39	-0.02
96	CC(NC(=O)c1ccc(Br)cc1)C(=O)NC1=NCCS1 (stereo not drawn)	7.4*	0.15*
97	Cc1cccc(NC(=O)CCN2C(=O)C3C4C=CC(C4)C3C2=O)n1 (stereo not drawn)	1.1	0.01
98	Cc1ccc(C(=O)N2CCN(c3ncnc4c(C)csc34)CC2)cc1	2.6	1
99	O=C(O)/C=C/c1ccc2c(c1)OCCO2	1.7	-0.8
100	COc1ccccc1NC(=O)CSc1nc(C)c2c(c1C#N)CCCC2	0.07	1
101	Cc1cc(=O)oc2cc(OCC(=O)N3CCN(C(=O)C4COc5ccccc5O4)CC3)ccc12 (stereo not drawn)	0.02	-1.5
102	COc1ccccc1CNC(=O)C(=O)Nc1ccc(C(=O)N2CCC(C)CC2)cc1	0.25	-2.2
103	N/C(Cc1cccc2ccccc12)=N\OC(=O)c1ccc2c(c1)OCO2	0.53	-0.4
104	CN1C(c2ccc(F)cc2)=CS/C1=C(/C#N)c1nnc(N2CCOCC2)n1-c1ccccc1	1.2	-0.05
105	COc1cccc(-c2nnn(CCc3nn[nH]n3)n2)c1	0.08	-0.05
106	O=C1CC(NCc2ccncc2)C(=O)N1c1ccccc1 (stereo not drawn)	1.1	-0.03
107	O=C(Cn1c(=O)n(-c2ccccc2)c(=O)n1CC(=O)N1CCCCC1)N1CCCCC1	0.26	-1.5
108	Cc1cc(F)ccc1NC(=O)c1cc(S(=O)(=O)N2CCc3ccccc32)cn1C	1.6	-3.7
109	CC(C)c1nnc(NC(=O)c2cc3ccccc3o2)s1	0.02	1.6
110	Cc1cc(SC(C)C(=O)O)nc2ccccc12 (stereo not drawn)	1.5	-0.16
111	COc1ccccc1CNC(=O)C1CCCN(S(=O)(=O)c2cccc3cccnc23)C1 (stereo not drawn)	0.34	-0.34
112	CCOC(=O)Nc1ccc2c(c1)N(C(=O)OCCN(C)C)c1ccccc1CC2	2&0.25	-0.32&-1.2
113	CCOc1ccc(N(CC(=O)OC)S(=O)(=O)c2ccc3c(c2)n(C)c(=O)c(=O)n3C)cc1	0.03	-0.69

Among those listed so far, three have a tert-butyl group:
cpd	mol	KCNQ2 pot	KCNQ2 pot baseline
1	CCCCn1c(N)c(C(=S)NC(=O)CC(C)(C)C)c(=O)n(C)c1=O	6.9*	0.08*
41	Cn1c(SCC(N)=O)nnc1-c1ccc(C(C)(C)C)cc1	0.3	1.3
59	Cc1nn(-c2ccccc2)nc1CNC(=O)CC(C)(C)C	0.22	0.67
